Cruzain inh Det – qHTS Assay for Promiscuous and Specific Inhibitors of Cruzain (with detergent) | Cruzipain (Trypanosoma cruzi), P25779 | purified cruzain, Z-FR-AMC fluorescence, 0.01% Triton | Potency, µM, inactives show max response, negative = inhibition, most hits filed as inhibitors | actives 0.43% (n = 200,000);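 further: plate controls were neutral wells for no effect and buffer without enzyme for full effect; nearly all actives have a fitted effect of over 40% in size; top concentration of the series not given in the record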
Target sequence (P25779 123-467 limits assumed): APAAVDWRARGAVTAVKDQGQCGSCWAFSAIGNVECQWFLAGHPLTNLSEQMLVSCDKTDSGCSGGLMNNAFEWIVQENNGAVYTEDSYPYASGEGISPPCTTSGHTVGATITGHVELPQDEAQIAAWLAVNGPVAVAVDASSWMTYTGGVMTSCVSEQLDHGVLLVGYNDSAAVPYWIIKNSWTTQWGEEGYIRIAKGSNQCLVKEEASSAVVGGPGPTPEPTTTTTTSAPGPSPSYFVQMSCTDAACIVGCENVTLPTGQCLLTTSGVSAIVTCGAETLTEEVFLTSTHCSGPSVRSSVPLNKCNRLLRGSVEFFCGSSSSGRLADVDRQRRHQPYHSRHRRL
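Purified cruzain (1.5 nM final) was preincubated with compounds for 15 min at room temperature in 100 mM sodium acetate pH 5.5, 5 mM DTT, 0.01% Triton X-100. Reaction started with 2 uM Z-FR-AMC; AMC fluorescence change over 60 s gave activity.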
Cruzain noTriton – qHTS Assay for Promiscuous and Specific Inhibitors of Cruzain (without detergent) | AID 1476, 2009 | purified cruzain, Z-FR-AMC fluorescence, no detergent | Potency, µM, without a hit: max response, negative = inhibition, most hits filed as inhibitors | Cruzipain (Trypanosoma cruzi), P25779 | actives 2.3% (n = 200,000);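 further: plate controls were enzyme without inhibitor for no effect and buffer without enzyme for full effect; nearly all actives have a fitted effect of over 40% in size; top concentration of the series not given in the record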
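Purified cruzain at 1.5 nM, pre-incubated 15 min with compound at room temperature in 100 mM sodium acetate pH 5.5, 5 mM DTT, 0.00005% Triton X-100. Reaction started with 2 uM Z-FR-AMC; AMC fluorescence increase over 60 s gives rate.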
SARS PLpro yeast – qHTS of Yeast-based Assay for SARS-CoV PLP; S. cerevisiae expressing SARS-CoV PLpro, growth rescue; control for the full effect not named in the record; Potency, µM (titrated, usually from 32.9 µM), without a hit: top-dose activity, positive = growth rescue; actives 0.19% (n = 330,000); AID 485353, 2010; active means well fitted rising curve with a large enough effect; inconclusive means small, poorly fitted or top-dose-only effect; inactive means no such curve, though single readings can be large or run the other way; further: 0% is about no effect; nearly all actives have a fitted effect of over 55% in size; growth read by luminescence after 48 h
RE007 growth inh – qHTS Assay for Inhibitors of the HIV-1 protein Vpr; actives 0.21% (n = 360,000); Potency, µM (doses to about 92.2 µM), inactives show at the top dose activity change, negative = less growth; S. pombe RE007 Vpr strain, BacTiter-Glo ATP luminescence, 24 h; control for the full effect not named in the record; active = well fitted falling curve with a large enough effect; inconclusive = small, poorly fitted or top-dose-only effect; inactive = no such curve, though single readings can be large or run the other way;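 further: on the % scale 0 is the no-effect control and ±100 the full control effect; nearly all actives have a fitted effect of over 50% in size; the assay follows cell death caused by Vpr and the record does not say whether a fall means rescue or toxicity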
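Fission yeast strain RE007, carrying one chromosomally integrated HIV-1 vpr copy, was seeded at OD 0.01 in PMG+AL medium with 23 nL pinned compound. After 24 h at 30 °C and 99% humidity, viability was read by BacTiter-Glo luminescence.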
LASV entry inh – qHTS for Inhibitors of binding or entry into cells for Lassa Virus | Potency, µM (doses to about 37.9 µM), inactives show at the top dose activity change, negative = inhibition, most hits filed as inhibitors | Lassa virus pseudotype entry inhibition, cell reporter; control for the full effect not named in the record | actives 1.2% (n = 300,000); active means well fitted inhibition curve with a large enough effect; inconclusive means small, poorly fitted or top-dose-only effect, or effect the other way; inactive means flat fitted curve, though single readings scatter; tested in HEK293 cells; further: on the % scale 0 is the no-effect control and ±100 the full control effect; nearly all actives have a fitted effect of over 50% in size; luciferase read-out
MARV entry inh – qHTS for inhibitors of binding or entry into cells for Marburg Virus. Marburg virus pseudotyped entry inhibition, cell reporter; control for the full effect not named in the record; about a third of the inactives were read at about 46 µM. actives 1.8% (n = 300,000). Potency, µM (doses to about 37.8 µM), for inactives: at the top dose activity change, negative = inhibition, most hits filed as inhibitors; active = well fitted inhibition curve with a large enough effect; inconclusive = small, poorly fitted or top-dose-only effect, or effect the other way; inactive = flat fitted curve, though single readings scatter; tested in HEK293 cells; about a fifth of its hits are not listed in these tables; further: on the % scale 0 is the no-effect control and ±100 the full control effect; luciferase read-out
NS1 function inh – qHTS Assay for Inhibitors of Influenza NS1 Protein Function. actives 0.4% (n = 270,000). S. cerevisiae slowed by influenza A NS1, growth recovery by OD600. Potency, µM (top dose mostly 46.1 µM), without a hit: at the top dose activity, positive = more growth. AID 2326, 2010; active means well fitted rising curve with a large enough effect; inconclusive means small, poorly fitted or top-dose-only effect; inactive means no such curve, though single readings can be large or run the other way; further: nearly all actives have a fitted effect of over 50% in size
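Compounds were scored for reversing the slow growth caused by influenza A NS1 in S. cerevisiae, measured by optical density at 600 nm. Assay medium contained 2% galactose at pH 6.0; NS1-free yeast of the same strain were the positive control.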
StopGo reporter – High Throughput Screening for Foot and Mouth Disease Virus Antivirals; Potency, µM (top dose mostly 57.9 µM), for the others: at the highest dose signal change, negative = less light; actives 1.2% (n = 410,000); human cells with a luciferase reporter of 2A StopGo recoding; control for the full effect not named in the record; AID 1159524, 2015; active = well fitted falling curve with a large enough effect; inconclusive = small, poorly fitted or top-dose-only effect; inactive = no such curve, though single readings can be large or run the other way; tested in HEK293T cells; further: on the % scale 0 is the no-effect control and ±100 the full control effect; nearly all actives have a fitted effect of over 45% in size; luciferase light after 4 h
* hit, by the source's call; ? = inconclusive; nt = not tested or not shown; & = joins results of further samples; [ ] = remark or other dose. Unless noted, the call rests on the fitted dose curve; in most records, active means well fitted curve in the direction sought with a large enough effect; inconclusive means small, poorly fitted or top-dose-only effect, or another doubt; inactive means no such curve, though single readings can be large; an effect the other way counts as inactive or inconclusive. Potency means the concentration at half of the fitted maximal effect. Not a hit list; 4.5% or so of the library scored in one or more.

Structure	Cruzain inh Det	Cruzain noTriton	SARS PLpro yeast	RE007 growth inh	LASV entry inh	MARV entry inh	NS1 function inh	StopGo reporter
CC1(C)Oc2ccc3ccc(=O)oc3c2CC1O (configuration not stated)	3.8%	-7%	2%	5%	nt	nt	3%	13%&4%
Cc1ccc(C)c(NC(=O)Cn2cc(S(=O)(=O)NC(C)C)c(S(=O)(=O)NC(C)C)c2)c1	-2.9%	2%	nt	nt	8%[46.1 µM]	nt	nt	-3%
Cc1onc(-c2c(F)cccc2Cl)c1C(=O)OCC(=O)NC(=O)NCC(C)C	nt	nt	-3%	24%	?	27%[46.1 µM]	nt	0%
CN1C(=O)C(=C2CCCCCC2)SC1=S	-2.5%	-9%	1%	-20%	1%	23%	-52%	-23%
COCCn1c(Cc2cccn2C)nnc1SCC(=O)Nc1nccs1	nt	nt	2%	1%	11%[46.1 µM]	0%[46.1 µM]	nt	-6%
CCSc1nc2sc3c(c2c(=O)n1-c1ccccc1)CCN(C(C)C)C3	nt	nt	-2%	1%	nt	nt	0%	-28%
COC(=O)N/N=C1\CCCc2c(C)cc(C)cc21	nt	nt	-7%	14%	?	?	nt	-17%
CCS(=O)(=O)N1CCc2cc(C(=O)Nc3cccc(NC(C)=O)c3)ccc21	-9.0%	16%	nt	nt	0%[46.1 µM]	-21%[46.1 µM]	nt	-21%
COc1ccc(F)c(C2C(C#N)=C(N)Oc3n[nH]c(C(C)(C)C)c32)c1 (configuration not stated)	-11%	2%	6%	-14%	-29%	-25%	-4%	?
COc1ccc(-n2c(=O)c3ccccc3n(CC(=O)Nc3ccccc3OC)c2=O)cc1	-1.3%	5%	3%	-6%	10%[46.1 µM]	?	nt	-1%&-17%
Cc1ccc(O)c(-c2n[nH]c3c2C(c2ccccc2F)N(Cc2ccco2)C3=O)c1 (configuration not stated)	-17%	?	nt	nt	nt	?	nt	?
O=C(COC(=O)CCC(=O)Nc1nccs1)NCc1ccco1	6.3%	5%	-4%	9%	?	-4%	-8%	12%
O=C(OCC(=O)N1CCCCCC1)c1cccs1	0.2%	-5%	7%	?	?	8%	-15%	13%
C[C@]12CC[C@H](O)CC1=CCC1C2CC[C@@]2(C)C1C[C@@H](O)[C@@H]2O (some centres not stated)	nt	nt	-2%	11%	32%	4%	nt	-16%
CCOc1ccccc1NC(=O)COC(=O)C(CC(C)C)N1C(=O)C2CC=CCC2C1=O (configuration not stated)	-26%	8%	?	?	0%	-7%	-3%	-4%
COc1ccc2oc(C(=O)N3CCCc4ccccc43)c(C)c2c1	nt	nt	3%	-8%	?	?	nt	51%[activator]
Cc1c(NS(=O)(=O)c2cc(C(=O)O)ccc2Cl)c(=O)n(-c2ccccc2)n1C	nt	nt	2%	-12%	0%[46.1 µM]	-1%[46.1 µM]	-6%	9%
CC(C)Cc1csc(NC(=O)c2ccc(Cl)cc2)c1C(=O)O	-11%	6%	-66%	21%	?	?	-11%	-17%
O=C(Nc1nc2cc3c(cc2s1)OCCO3)C1=COCCO1	nt	nt	-2%	?	nt	nt	-3%	4µM*
COc1ccccc1NC(=O)CSc1ncc2c(n1)-c1ccccc1N(Cc1ccccc1C)S2(=O)=O	-0.1%	7.9µM*	nt	nt	12%[46.1 µM]	nt	nt	0%
CN(CC(=O)N1CCc2ccccc21)S(=O)(=O)c1cccc2cccnc12	0.9%	-3%	-3%	12%	nt	nt	-12%	?
Cc1c(Br)c([N+](=O)[O-])nn1C(C)C(=O)NCC1CCCO1 (configuration not stated)	nt	nt	1%	14%	nt	nt	1%	-9%
COc1ccc(C(CNC(=O)Cc2ccc(Cl)cc2)N2CCOCC2)cc1 (configuration not stated)	-2.2%	13%	nt	nt	-17%[46.1 µM]	3%[46.1 µM]	nt	-7%
O=C(COc1coc(CN2CCc3ccccc3C2)cc1=O)Nc1ccc(Cl)cc1	nt	nt	2%	-1%	?	-4%	nt	-8%
c1ccc2c(NC3=NCCS3)cccc2c1	-2.2%	-2%	1%	-5%	23%	3%[46.1 µM]	-70%	4%
CCn1c(CS(=O)Cc2ccc(Cl)cc2Cl)nnc1SCc1c(Cl)cccc1Cl (configuration not stated)	-1.9%	3%	2%	-9%	4%	-9%	7%	5%
Cc1nn(-c2ccccn2)c2c1C(=O)CC(C)(C)C2Br (configuration not stated)	nt	nt	-2%	-15%	nt	nt	-5%	-1%
CCN(CC(=O)Nc1ccc(NC(C)=O)cc1)C(=O)c1cccnc1Sc1ccc(C)c(C)c1	nt	nt	-1%	3%	0%	12%	nt	3%
CCOC(=O)C1CCCN(C(=O)c2cn(C)c3ccc(S(=O)(=O)N(C)C)cc3c2=O)C1 (configuration not stated)	-3.0%	-8%	-2%	-7%	nt	nt	10%	27%
COc1ccc(NC(c2nnc(-c3ccccc3)o2)c2ccccc2F)cc1Cl (configuration not stated)	-4.9%	?	nt	nt	6%[46.1 µM]	?	nt	-9%

Rewritten with each value named: entries from further up.
CN(CC(=O)N1CCc2ccccc21)S(=O)(=O)c1cccc2cccnc12
  Cruzain inh Det: 0.9%; Cruzain noTriton: -3%; SARS PLpro yeast: -3%; RE007 growth inh: 12%; LASV entry inh: nt; MARV entry inh: nt; NS1 function inh: -12%; StopGo reporter: ?
CN1C(=O)C(=C2CCCCCC2)SC1=S
  Cruzain inh Det: -2.5%; Cruzain noTriton: -9%; SARS PLpro yeast: 1%; RE007 growth inh: -20%; LASV entry inh: 1%; MARV entry inh: 23%; NS1 function inh: -52%; StopGo reporter: -23%

(continued)
Structure	Cruzain inh Det	Cruzain noTriton	SARS PLpro yeast	RE007 growth inh	LASV entry inh	MARV entry inh	NS1 function inh	StopGo reporter
O=C(CSC1=NC(=O)C(c2ccccc2)C(=O)N1)Nc1ccccc1Cl (configuration not stated)	3.8%	-6%	6%	3%	15%	11%[46.1 µM]	6%	-9%
CCC(CC)C(=O)NCCc1cc2ccc(OC)cc2[nH]c1=O	1.0%	3%	-1%	4%	3%	?	2%	-19%
COc1ccc(N/C=C2/CCCCC2=O)cc1	-11%	-26%	5%	1%	?	19%	?	28%
C#CCOCCOCCOCCNc1nc(N2CCOCC2)nc(N2CCN(C(=O)Cn3cc(CCCN=C(N)N)nn3)CC2)n1	-0.6%	1%	3%	-9%	?	33%	19%	-20%
CC1CCCN(CC(O)CN2CCN(CC(O)CN3CCCC(C)C3)C(C)C2)C1 (configuration not stated)	nt	nt	nt	-21%	3%[46.1 µM]	1.1µM*	nt	5%
O=C(COC(=O)CCc1c[nH]c(=O)[nH]1)Nc1ccccc1	11%	-9%	3%	-4%	12%	-1%	?	-3%
O=C(Nc1ccccc1Cl)c1cc2ccccc2o/c1=N\O	nt	nt	-12%	-2%	?	11%[46.1 µM]	-119%	6%
Cc1ccc(Cn2c([N+](=O)[O-])cnc2C)cc1	-0.8%	-1%	-10%	21%	1%	8%	13%	-22%
O=[N+]([O-])c1ccc(O)c2cccnc12	nt	nt	0%	-12%	0%[46.1 µM]	13%	nt	-13%
O=C1N(Cc2cccc(Cl)c2)C[C@@H]2C[C@@H](c3cccn3-c3nccs3)N3CCC[C@@]123	nt	nt	-2%	-25%	?	11µM*	0%	?
O=C(Nc1ccc(S(=O)(=O)N2CCc3ccccc32)cc1)c1ccco1	-9.6%	-9%	4%	1%	7.3µM*	-21%	-3%	?
CC(=O)N1CCOc2ccc(S(=O)(=O)N3CCC(C)CC3)cc21	nt	nt	23%	2%	nt	nt	7%	-24%
COc1ccccc1C1CCN(Cc2cccc3ccccc23)CC1	nt	nt	-1%	-19%	-25%	?	3%	?
CCN(CC(=O)Nc1ccccc1C(F)(F)F)C(=O)c1oc2c(Cl)cccc2c1C	nt	nt	-3%	14%	2%	?	nt	?
Cc1nc(Cl)sc1C(=O)Nc1ccccc1Cl	nt	nt	0%	-11%	nt	nt	-6%	14%
O=C(NCc1ccc2c(c1)OCO2)c1nc(Cn2cc(Br)cn2)no1	nt	nt	6%	-5%	-14%[46.1 µM]	-2%[46.1 µM]	2%	9%
COCc1nc2ccccc2n1Cc1cccc(C)c1	-2.2%&2.3%	-1%&-3%	22%	16%	22%[46.1 µM]	8%[46.1 µM]	0%	-1%&-3%
O=C(Nc1ccccc1-c1ccccc1)c1ccc(=O)[nH]n1	nt	nt	7%	-9%	10%	-7%	-5%	52%[activator]
CN(Cc1ccccc1)C(=O)c1ccc2c(c1)NC(=O)C(N1CCOCC1)S2 (configuration not stated)	nt	nt	4%	9%	-27%	?	nt	6%
Cc1ccc(C(c2nnnn2C2CCCCC2)N(C)C2CCCCC2)cc1 (configuration not stated)	0.6%	-3%	-1%	17%	-11%	?	0%	9%
CC1CCN(c2ccc(-c3cccc(NS(=O)(=O)c4ccc(F)cc4F)c3)nn2)CC1	1.5%	-6%	nt	nt	9%[46.1 µM]	nt	nt	-7%
COc1ccc(CNn2cnnc2)c(O)c1	nt	nt	4%	70%	?	?	17%	0%
Cc1ccsc1C(=O)C1CCCN(Cc2c(C)nn(C(C)C)c2C)C1 (configuration not stated)	nt	nt	-1%	-18%	6%[46.1 µM]	-18%[46.1 µM]	-1%	-3%
Cc1cccn2c(=O)c(/C=C(\C#N)C(=O)NCc3ccco3)c(N3CCOCC3)nc12	nt	nt	1%	7%	-8%[46.1 µM]	?	-1%	-1%
O=C(N/N=C/c1c[nH]c2ccccc12)C1CC1(c1ccccc1)c1ccccc1 (configuration not stated)	-9.1%	-4%	-2%	5%	?	?	2%	9%

Screening data: PubChem BioAssay, National Center for Advancing Translational Sciences (NCATS)
